CBX7 AlphaScr: CBX7 chromodomain binding inhibitors, primary screen, biochemical, AlphaScreen; Chromobox protein homolog 7 (Homo sapiens), O95931; AlphaScreen His6-CBX7 / biotin-H3K27me3 peptide binding; active compounds read low; normalised signal (fraction of DMSO) (no concentration beside the values); hit rate 1.1% among 66,000; in the data active = normalised signal below about 0.5;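 also: 100 nL library stock added to about 20 µL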
Target sequence (O95931 whole entry, looked up): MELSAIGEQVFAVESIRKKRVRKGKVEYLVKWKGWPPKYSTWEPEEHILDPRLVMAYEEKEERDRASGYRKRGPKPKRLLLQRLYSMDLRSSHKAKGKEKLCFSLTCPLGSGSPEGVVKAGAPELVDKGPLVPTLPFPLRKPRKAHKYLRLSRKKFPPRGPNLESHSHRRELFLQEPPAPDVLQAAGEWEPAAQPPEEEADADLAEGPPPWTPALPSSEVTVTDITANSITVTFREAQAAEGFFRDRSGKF
CBX7 AlphaScr z-score: recorded beside CBX7 AlphaScr, whose call it bears; z-score; measured here: z-score of CBX7 signal; some inactives read as strong as hits; reference of the scale not given here;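 same signal on another scale; lower means less binding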
Starred values were filed as active, the others as inactive.

A first look, seven compounds:
canonical_smiles | CBX7 AlphaScr | CBX7 AlphaScr z-score
COc1cc(Nc2nc(SCc3ccncc3)nc3ccccc23)cc(OC)c1 | 0.86 | -0.4
CN(C)CCNC(=O)c1ccc2c(c1)N(Cc1ccccc1)C(=O)c1ccccc1S2=O (stereo not drawn) | 0.99 | -0.31
COc1ccc(-c2cc(C(F)(F)F)nc(NCc3cccnc3)n2)cc1OC | 1 | -0.042
O=C(CCn1nc(-c2ccccc2)c2ccccc2c1=O)N1CCOCC1 | 1.2 | 1.7
Cc1cc(C)cc(NC(=O)C2CCN(S(=O)(=O)c3ccc(F)cc3)CC2)c1 | 1.1 | 3.1
COc1ccc(-c2nc(CS(=O)(=O)CC(=O)NCCN3CCOCC3)c(C)o2)cc1 | 1 | 0.13
Cc1nc2ccc(S(=O)(=O)N(C)CC(=O)Nc3ccc(C(C)C)cc3)cc2s1 | 1.2 | 1

Results, previewed entries included:
canonical_smiles | CBX7 AlphaScr | CBX7 AlphaScr z-score
COc1cc(Nc2nc(SCc3ccncc3)nc3ccccc23)cc(OC)c1 | 0.86 | -0.4
CN(C)CCNC(=O)c1ccc2c(c1)N(Cc1ccccc1)C(=O)c1ccccc1S2=O (stereo not drawn) | 0.99 | -0.31
COc1ccc(-c2cc(C(F)(F)F)nc(NCc3cccnc3)n2)cc1OC | 1 | -0.042
O=C(CCn1nc(-c2ccccc2)c2ccccc2c1=O)N1CCOCC1 | 1.2 | 1.7
Cc1cc(C)cc(NC(=O)C2CCN(S(=O)(=O)c3ccc(F)cc3)CC2)c1 | 1.1 | 3.1
COc1ccc(-c2nc(CS(=O)(=O)CC(=O)NCCN3CCOCC3)c(C)o2)cc1 | 1 | 0.13
Cc1nc2ccc(S(=O)(=O)N(C)CC(=O)Nc3ccc(C(C)C)cc3)cc2s1 | 1.2 | 1
COc1ccc(-n2nnc3c(=O)n(CC(=O)Nc4cccc(C(F)(F)F)c4)cnc32)cc1 | 0.92 | -1.5
COc1ccccc1NC(=O)CCc1c(C)nc2cc(-c3ccccc3)nn2c1C | 0.94 | -0.94
Cc1cc(NC(=O)CSc2nccc(=O)[nH]2)no1 | 1.5 | 4.4
Cc1ccccc1Nc1c(-c2c(F)cccc2Cl)nc2cccc(C)n12 | 0.91 | -3.3
O=C(CN1CCCN(Cc2ccc(F)cc2Cl)C1=O)NCCc1ccccc1 | 0.98 | -0.37
O=C(NCCc1ccc(Cl)cc1)C1CCC(=O)N1CCc1ccccc1 (stereo not drawn) | 1 | 2.2
CCSc1nnc(NC(=O)CSc2nccn2-c2cccc(Cl)c2)s1 | 1.4 | 2.8
CCOC(=O)c1c(C)n(C)c2ccc(OCC(O)Cn3nc(C)cc3C)cc12 (stereo not drawn) | 1 | 0.98
COc1ccc2nc(NC(=O)C3CCN(S(=O)(=O)c4c(C)n[nH]c4C)CC3)sc2c1 | 1 | 0.3
CCCN1CCN(CCCNC(=O)CC(C(=O)N2CCc3ccccc32)n2ccnc2)CC1 (stereo not drawn) | 1.4 | 0.83
O=C(O)c1cccc(-n2nnnc2-c2ccccc2)c1 | 1 | 0.53
CCOC(=O)c1c(NC(=O)c2cccs2)sc(C(=O)Nc2ccccc2)c1C | 1.1 | 4.2
C=CCn1cc(C(=O)O)c(=O)c2cc(S(=O)(=O)N3CCCCCC3)ccc21 | 1 | -0.025
O=C(NCCCN1CCC(Cc2ccccc2)CC1)C1CC(=O)N(C2CCCC2)C1 (stereo not drawn) | 1 | 1.5
CC(=O)N1CCc2cc(S(=O)(=O)N3CCC(Cc4ccccc4)CC3)ccc21 | 0.95 | -1.7
COCCCNC(=O)c1nnc(Cc2ccc(Cl)cc2)o1 | 0.89 | -1.3
CCc1ccccc1NC(=O)C1(S(=O)(=O)c2ccc(Cl)cc2)CC1 | 1.1 | 0.16
Cc1ccc(-c2noc(CNc3cccc(Cl)c3)n2)cc1 | 1.1 | 0.16
Cc1ccc(NC(=O)c2oc3ccc(S(=O)(=O)N4CCCCCC4)cc3c2C)cc1Cl | 1.1 | 2.3
Cc1cccc(C(=O)Nc2nc(-c3ccc(Cl)c(Cl)c3)cs2)c1 | 1.1 | 1.4
Cc1nn(C)c(C)c1S(=O)(=O)N(CC(=O)NCc1ccc(Cl)cc1)c1ccc(C(C)C)cc1 | 1.2 | 1.6
Cc1onc(-c2ccccc2)c1C(=O)N1CCCC1C(=O)O (stereo not drawn) | 1 | 0.049
Cc1cc(NC(=O)CSc2nccn2-c2ccc(Cl)cc2)no1 | 0.82 | -0.64
Cc1ccc(-c2cn(-c3ccc(Cl)cc3)c(=O)[nH]2)cc1 | 0.91 | -2.1
CCn1c(COc2cccc3cccnc23)nnc1SCC(=O)OC | 0.98 | -0.46
Cc1onc(-c2ccccc2)c1C(=O)Nc1ccc2c(c1)OCCO2 | 1.4 | 1.9
CCOC(=O)c1ccc(NS(=O)(=O)c2ccc3c(c2)CCN3C(=O)C2CC2)cc1 | 0.98 | -0.54
O=C(Cc1c(C(=O)O)[nH]c2ccccc12)Nc1cccc(C(F)(F)F)c1 | 1 | 0.31
O=C(NC1CCCCC1)c1cc(=O)[nH]c2ccc(S(=O)(=O)N3CCOCC3)cc12 | 0.93 | -0.81
COc1ccc(CN(C(=O)c2ccccc2OC)C2CCS(=O)(=O)C2)cc1 (stereo not drawn) | 1 | 0.047
CC(=O)Nc1ccc(S(=O)(=O)N2CCN(c3cc4c(cc3F)c(=O)c(C(=O)O)cn4C3CC3)CC2)cc1 | 0.94 | -0.77
Cc1c(CNCc2ccccc2Cl)c(C(=O)O)c(C)n1Cc1ccccc1 | 1.1 | 2.2
CC1(C)Cc2c(cnn2-c2ccc(F)cc2F)-c2nc3ccccc3nc21 | 1.2 | 4.1
CCC(C(=O)Nc1cccc(OC)c1)n1c(SCc2cccc(C)c2)nc2ccncc21 (stereo not drawn) | 1.1 | 1.2
COc1ccc(Cl)cc1C(=O)Nc1nnc(C)s1 | 1 | 0.47
O=C(Cn1ncc2c1-c1ccccc1OC2)NC1CCCC1 | 1 | 0.74
COc1cccc(OC)c1C(=O)Nc1nnc(C(C)C)s1 | 0.83 | -2.2
Cc1ccc(-c2cc(C(F)(F)F)n3nc(C(=O)NC4CCCC4)c(Cl)c3n2)cc1 | 1.1 | 0.91
Cc1ccc(C(=O)Nc2ccc3oc(-c4ccncc4)nc3c2)cc1C | 1 | 0.71
O=C(Cc1cccs1)Nc1cccc(-c2nc3ccccc3o2)c1 | 1 | 1.1
O=C1CC(N2CCN(CCO)CC2)C(=O)N1c1ccc(F)cc1 (stereo not drawn) | 0.86 | -2.3

3 entries already listed, arranged by their value in CBX7 AlphaScr z-score, largest number first:
canonical_smiles | CBX7 AlphaScr z-score
COc1ccc(-c2cc(C(F)(F)F)nc(NCc3cccnc3)n2)cc1OC | -0.042
O=C1CC(N2CCN(CCO)CC2)C(=O)N1c1ccc(F)cc1 (stereo not drawn) | -2.3
Cc1ccccc1Nc1c(-c2c(F)cccc2Cl)nc2cccc(C)n12 | -3.3

Remaining list, next part
canonical_smiles | CBX7 AlphaScr | CBX7 AlphaScr z-score
COc1ccc(CNC(=O)c2cnc3cc(C)ccn3c2=O)cc1 | 1.1 | 1.4
Cc1cccc(NC(=O)c2sc3nc4c(cc3c2N)CCCC4)c1C | 1 | 0.025
O=C(Cc1c(C(=O)O)[nH]c2ccc(Cl)cc12)Nc1ccc2c(c1)OCO2 | 1 | 0.52
N#Cc1cccc(NC(=O)c2cc3c(s2)-c2ccccc2OC3)c1 | 1.1 | 2.2
CCOc1ccc(Nc2cc(C(=O)NCc3cccnc3)c3ccccc3n2)cc1 | 1.1 | 1.2
Cc1ccc2nc(-c3ccc(C)s3)c(Nc3ccccc3C)n2c1 | 1.1 | 0.69
O=C1CN(C(=O)c2ccccc2Cl)C(c2ccccc2)c2cc(F)ccc2N1 (stereo not drawn) | 0.89 | -0.22
O=C(O)c1[nH]c(=O)[nH]c(=O)c1CN1CCCCC1 | 0.98 | -0.67
Cc1ccc(CCNC(=O)CN2CCN(Cc3ccc(Cl)cc3)C2=O)cc1 | 0.98 | -0.22
CCC(=O)Nc1nnc(CCc2ccccc2)s1 | 0.95 | -0.67
O=C(NCCN1CCN(c2cccc(Cl)c2)CC1)Nc1ccccc1 | 1.2 | 1.4
COc1cccc(NC(=O)C2CCCN(c3nnc(-n4cccc4)s3)C2)c1 (stereo not drawn) | 1 | 1.3
CC(=O)c1ccc(NC(=O)C2OC3OC(C)(C)OC3C3OC(C)(C)OC23)cc1 (stereo not drawn) | 1.1 | 0.94
CC(=O)c1sc(NC(=O)c2ccc(S(=O)(=O)N3CCCCC3)cc2)nc1-c1ccccc1 | 1.2 | 3.4
Cc1ccc(-c2nnc(SCC(=O)N3CCCc4ccccc43)o2)cc1 | 1.4 | 0.92
CCOc1cc2c(cc1OCC)C(c1ccc(C)cc1)CC(=O)N2 (stereo not drawn) | 0.91 | -0.56
COc1ccc(CCn2c(=O)c3cccnc3n(Cc3ccc(C#N)cc3)c2=O)cc1OC | 0.96 | -0.88
CCCNC(=O)C1CCCN(C(=O)c2cnn(-c3ccccc3)c2-n2cccc2)C1 (stereo not drawn) | 0.96 | -2
COc1ccc(Nc2cc(C(=O)NCCCN(C)Cc3ccccc3)c3ccccc3n2)c(OC)c1 | 0.79 | -3.3
Cc1cc2c(cc(C(=O)NC(C)c3ccccc3)n2Cc2ccc(Cl)cc2)o1 (stereo not drawn) | 0.99 | -0.33
Cc1ccc2nc(Nc3ccc(C(=O)Nc4cccc(Cl)c4)cc3)nc(-c3ccccc3)c2c1 | 1.1 | 2.5
COc1ccc2nc(N3CCC(C(=O)NCCc4ccc(Cl)cc4)CC3)sc2c1 | 1.1 | 2.1
O=C(Cn1nnc(-c2ccccc2F)n1)Nc1ccc(OC(F)(F)F)cc1 | 1.1 | 0.45
Cc1[nH]c2ccccc2c1CCNC(=O)c1ccc(C(C)(C)C)cc1 | 0.74 | -2.5
O=C(CSc1nc(-c2ccc(F)cc2)[nH]c1-c1ccc(F)cc1)Nc1ccc2c(c1)OCO2 | 0.92 | -0.33
CCOC(=O)c1cnc2cc(Cl)c(OC)cc2c1Nc1cnc2ccccc2c1 | 1.1 | 0.1
COCCNC(=O)Cn1c(C)cc2ccccc2c1=O | 1 | -0.027
CC1CC(C)CN(C(=O)CSc2nnc(Cc3ccccc3)o2)C1 (stereo not drawn) | 1.1 | 1.3
CCOC(=O)c1cnc2cc(Cl)c(OC)cc2c1Nc1cc(Cl)ccc1OC | 1 | 0.4
CN(CCC#N)C(=O)c1cc2c(s1)-c1ccccc1OC2 | 1.1 | 2.3
O=C(CN1C(=O)COc2ccc(S(=O)(=O)N3CCCC3)cc21)N1CCN(c2ccccc2F)CC1 | 1.1 | 1.8
O=C(Nc1nnc(/C=C/c2ccccc2)s1)c1ccc(Cl)c(Cl)c1 | 1 | 1.2
COc1ccc(-c2noc(N(C)CC(=O)N3CCN(C)CC3)n2)cc1 | 1 | 0.59
CCOC(=O)c1ccc(N2C(=O)c3nccnc3C2=O)cc1 | 1.1 | 2.8
O=C1NC(Cc2c[nH]c3ccccc23)C(=O)N1c1ccccc1 (stereo not drawn) | 1 | 0.22
COc1ccc(-c2csc(NC(=O)c3ccccc3Oc3ccccc3)n2)cc1OC | 1.1 | 2.1
Cc1ccc(NC(=O)N(C2CCCCC2)C2CCN(C(C)C)CC2)cc1C | 1.1 | 1.9
CCCc1cc2c(=O)c(-c3ccccn3)coc2cc1OC(C)=O | 0.94 | -1.6
COc1ccc(C(=O)c2cn(Cc3ccc(F)cc3)c3ccc(OC)cc3c2=O)cc1 | 0.68 | -3.1
Oc1ccccc1-c1nnc(COc2ccccc2)o1 | 0.58 | -6.8
Cc1oc(-c2ccc(Cl)cc2)nc1CN1CCCC(C(=O)NC2CC2)C1 (stereo not drawn) | 1.1 | 0.65
CCCN(C(=O)c1cc2c(s1)-c1ccccc1OC2)c1ccc(F)cc1 | 1.3 | 14
O=C(Nc1ccc(Cl)cc1)c1ccc2c(c1)N(Cc1ccccc1)CCS2 | 1 | 0.052
COc1ccc(-c2nc3cc(C)ccn3c2NC(=O)CCc2ccccc2)cc1OC | 1.3 | 2.5
CCc1c(C)nc(Nc2nc(C)c3cc(OC)ccc3n2)[nH]c1=O | 0.96 | -0.98
Cc1nc2c(C(=O)NCc3cccs3)cnn2c(C)c1Cc1ccc(F)cc1 | 1 | -0.0043
CN(C)C(=O)N1CCCC(C(=O)NCc2ccccc2Cl)C1 (stereo not drawn) | 1.1 | 1.2
COc1ccc(N2CCN(C(c3cccs3)C(C)NC(=O)C(=O)NCc3ccccn3)CC2)cc1 (stereo not drawn) | 0.84 | -5.1
CCOc1ccc2ccccc2c1C(=O)NCCc1cc2cc(C)c(C)cc2[nH]c1=O | 0.91 | -0.57
Cc1sc(NC(=O)c2ccc(Br)cc2)nc1-c1ccc(-c2ccccc2)cc1 | 1 | 0.9
COc1ccc(C2CC(=O)N(Cc3cccc(F)c3)c3ccccc3S2)cc1 (stereo not drawn) | 1.2 | 2.7
O=C(Nc1c(-c2cccs2)nc2ccccn12)c1c(F)cccc1F | 1 | 0.99
CCOC(=O)c1nnn(-c2nonc2N)c1CN1CCCC1 | 0.97 | -0.67
c1coc(-c2nnc3n2C2(CCCC2)Cc2ccccc2-3)c1 | 1.1 | 2
CCCCNS(=O)(=O)c1ccc2nc(-c3cccnc3)cc(C(=O)NC3CC3)c2c1 | 0.97 | -0.82
CCOC(=O)c1cnc2c(ccc3ccccc32)c1Nc1ccccc1OC | 1.2 | 2
COc1ccc(-c2noc(CCC(=O)Nc3ccccc3C)n2)cc1 | 0.88 | -1.8
COc1ccc(Nc2cc(C(=O)NCCCN3CCCC3=O)c3ccccc3n2)c(OC)c1 | 0.9 | -1.6
Cc1ccc(NC(=O)c2c[nH]n3c(=O)cc(C4CCNCC4)nc23)cc1 | 0.97 | -0.75
COc1ccccc1NC(=O)c1cnn(-c2ccccc2)c1C1CCN(C(=O)OC(C)(C)C)CC1 | 0.97 | -1.3
CC(=O)OCCNc1nc(-c2ccccc2)nc2ccccc12 | 0.92 | -0.95
Cc1cccc(N2C(=O)CSC2c2cccnc2)c1 (stereo not drawn) | 1 | 0.22
Fc1ccc(-c2cc(C(F)(F)F)nc(N3CCCCC3)n2)cc1 | 1.5 | 6

Bioassay records: PubChem, several laboratories

These rows are one share of the data (hit frequency here may not be typical).
